# Mtb betalactam – beta-lactam sensitization of Mtb H37Rv, H37Rv; M. tuberculosis H37Rv growth with meropenem, percent inhibition; hits of this screen are not shown here; inhibition, % at 25 µM; hit rate 0.27% among 330,000;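 active means about 74% or more and at least 40 points above the plate without the antibiotic, then above 30% in a dose series; inconclusive means first-round hits that could not be retested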;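 further: growth measured after seven days incubation then overnight dye step; 0% = bacteria only wells and 100% = bacteria with antibiotic; twin plates without the antibiotic show which effects depend on it; some results filed as inactive read as strong as hits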
# Mtb growth – M. tuberculosis H37Rv growth inhibitors, H37Rv strain (AID 1626); hit rate 0.95% among 220,000; M. tuberculosis H37Rv growth inhibition; higher % means a stronger effect; inhibition, % at 10 µM; hits with a dose series show IC50 in µM;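 active means confirmed in a dose series; inconclusive means inhibition above 80% but not taken into the dose series; inactive means below 80% or under 30% at every dose of the series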;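 further: bacteria incubated seven days before Alamar blue readout; 0% = bacteria only wells and 100% = bacteria with antibiotic wells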
# Arbovirus anti – antivirals against arbovirus infection, primary screen, cell-based, full library, 10K replicate subset | arbovirus infection cell-based antiviral screen | inhibition, % at 10 µM | hit rate 0.37% among 200,000 | AID 1251, 2008;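 active means inhibition from about 30%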;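 further: bluetongue infection of BSR cells; cell survival read as ATP light after 72 h; 0% = infected wells without compound and 100% = uninfected wells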
# YopH PTP inh – YopH tyrosine phosphatase inhibitors, primary screen, biochemical, fluorescence Ex485/Em525. inhibition, %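 (about 10 µM by stock and volumes)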. hit rate 0.16% among 140,000;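 active means inhibition of 50% or more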;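 further: controls were vehicle for no effect and minimum signal wells for full effect; inactives centre near -20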
# RecA splice inh – Mtb RecA intein splicing inhibitors, primary screen, biochemical, fluorescence, HTS; Protein RecA (Mycobacterium tuberculosis (strain ATCC 25618 / H37Rv)), P9WHJ3; cell-free RecA intein splicing; inhibition, %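 (about 9 µM by stock and volumes)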; hit rate 0.75% among 290,000; in the data active means inhibition above about 30%; inconclusive means no clear call, values can overlap the other calls;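 further: 0% = vehicle wells and 100% = reference inhibitor control wells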
# Target sequence (P9WHJ3 whole entry, looked up, canonical isoform): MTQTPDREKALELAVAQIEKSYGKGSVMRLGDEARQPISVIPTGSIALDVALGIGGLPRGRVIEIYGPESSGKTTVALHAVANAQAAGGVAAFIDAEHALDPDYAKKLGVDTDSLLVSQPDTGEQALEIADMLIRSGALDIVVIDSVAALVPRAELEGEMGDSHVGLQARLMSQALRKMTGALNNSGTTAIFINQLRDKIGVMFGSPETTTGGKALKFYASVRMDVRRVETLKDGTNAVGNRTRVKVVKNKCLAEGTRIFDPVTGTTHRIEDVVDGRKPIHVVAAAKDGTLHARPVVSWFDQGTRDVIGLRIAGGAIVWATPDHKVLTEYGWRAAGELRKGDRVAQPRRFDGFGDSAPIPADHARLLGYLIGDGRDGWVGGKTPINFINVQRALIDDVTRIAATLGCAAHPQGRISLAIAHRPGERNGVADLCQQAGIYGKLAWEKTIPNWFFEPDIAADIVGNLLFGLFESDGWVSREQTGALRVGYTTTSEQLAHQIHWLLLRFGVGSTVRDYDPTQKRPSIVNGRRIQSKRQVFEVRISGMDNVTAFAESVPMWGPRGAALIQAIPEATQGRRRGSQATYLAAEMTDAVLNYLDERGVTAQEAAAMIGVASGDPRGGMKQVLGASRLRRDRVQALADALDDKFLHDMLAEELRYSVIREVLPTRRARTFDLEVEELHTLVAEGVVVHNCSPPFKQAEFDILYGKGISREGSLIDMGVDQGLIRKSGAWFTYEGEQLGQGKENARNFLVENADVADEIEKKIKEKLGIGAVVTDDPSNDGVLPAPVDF
# Arbovirus anti repeat – second read-out of Arbovirus anti, no call of its own (marks repeat the call); inhibition, %; measured here: 10K subset replicate screen; many hits read low in the repeat;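 first of two repeat runs on a subset; 0% = infected and 100% = uninfected wells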
# An asterisk follows results filed as active; ? = inconclusive; . = not tested or not shown. Only part of the results is shown; rates above refer to the full screens.
SMILES,Mtb betalactam,Mtb growth,Arbovirus anti,YopH PTP inh,RecA splice inh,others
Cc1ccc(Sc2cc(C(=O)c3ccccc3C(=O)O)ccc2[N+](=O)[O-])cc1,2,.,.,.,-1.2,
CN(C)CCn1c(=O)n(-c2ccc(F)cc2)c(=O)c2c3c(sc21)CCCCC3,-6,1%,.,.,0.9,
COc1ccc(C(=O)NNS(=O)(=O)c2ccccc2)cc1OC,9,.,.,.,-2.6,
COc1ccc(C2=NN(S(C)(=O)=O)C(c3cccs3)C2)cc1 (stereo not drawn),-3,-4%,9,.,-0.9,
O=C(NCCc1nnc2ccc(SCC(=O)N3CCCC3)nn12)c1ccccc1,4,.,.,.,-3.3,
O=C1Nc2cc(C(=O)NCCN3CCCCCC3)ccc2S/C1=C\c1ccccc1,92,.,.,.,-0.4,
O=c1cc(COc2ncnc3c(Cl)cc(Cl)cc23)nc2sccn12,-4,-4%,.,.,1.8,
Nc1cc(=O)[nH]c(SCC(=O)Nc2cc([N+](=O)[O-])ccc2Cl)n1,3,2%,10,.,.,
O=C1CCCc2ccccc2N1,0,0%,6,.,-2.8,
CCCC1(C(=O)OC)NC(c2ccc(OC)c(OC)c2)C2C(=O)N(c3ccc4c(c3)OCO4)C(=O)C21 (stereo not drawn),1,-1%,11,-17,.,
O=C(/C=C/c1ccc([N+](=O)[O-])cc1)OCc1cnc(-c2ccccc2)o1,5,1%,10,.,0.5,
CC1COc2ccccc2N1C(=O)c1ccc(F)cc1 (stereo not drawn),-1,.,.,.,0.9,
O=C(/C=C/c1cccc([N+](=O)[O-])c1)N1CC[C@@]2(O)CCCC[C@H]2C1,-2,3%,.,.,-0.8,
O=C(COC(=O)CCSc1ccccc1)NCc1ccccc1Cl,-1,-7%,-10,-12,2.3,
COc1cccc(CNC(=O)c2ccccc2-c2ccccc2C(=O)O)c1,-1,.,.,.,-1.7,
O=C(NCc1ccccn1)Nc1cccc(NC(=O)NCc2ccccn2)c1,-12,-4%,6,-13,-1.7,
Cc1cccc2nc(CSc3nnc4ccccn34)cn12,-5,5%,-3,-14,-1.7,
CC(NC(=O)C1CCC(=O)N1Cc1ccc(F)cc1)c1ccc2c(c1)OCCO2 (stereo not drawn),-8,-2%,2,-23,0.3,Arbovirus anti repeat=-2
COC(=O)c1cc(OC)c(OC)cc1NC(=S)N1CCCC1,-11,-4%,-4,.,-3.1,
COc1nc(OC)nc(N2CCC(C(=O)NCc3ccco3)CC2)n1,-9,-7%,-5,-17,1.1,
O=C(O)CCc1nc(-c2ccccc2Cl)no1,-13,-7%,4,-40,-3.6,
C=CCn1c2ccccc2c2n[nH]c(=S)nc21,-3,.,.,.,-0.4,
COc1ccc(Nc2cc(C(=O)NCCCN3CCOCC3)c3ccccc3n2)cc1OC,13,-1%,-2,7,-0.4,
O=c1[nH]ncc(N2CCCCC2)c1Cl,-3,7%,3,-23,-2.8,
COc1ccc2nc3c(c(-c4ccccc4)c2c1)CCC3,91,5%,-11,-7,10,
CC1CCCN(c2c([N+](=O)[O-])c(=O)oc3ccccc23)C1 (stereo not drawn),?,8%,-1,-40,-0.5,
CC(C)[C@@H]1CC[C@@H](C)C[C@H]1OC(=O)C[n+]1cc(-c2ccc(Cl)cc2)n2c1CCCCC2,99,?,.,.,.,
COc1ccc(CNC(=O)C2CCCN2S(=O)(=O)c2ccc(Cl)cc2)cc1 (stereo not drawn),5,0%,-6,7,7.2,
Cc1cc(C)c(S(=O)(=O)N2CCN(c3ccc([N+](=O)[O-])c(-n4nc(C)cc4C)c3)CC2)c(C)c1,1,5%,-7,4,2.6,
CC(Cc1cccs1)NC(=O)Nc1ccccc1 (stereo not drawn),3,2%,-3,-38,-0.8,
CCCCCc1cc(=O)oc2c(C(CCN3CCCCC3)c3cc(OC)c(OC)c(OC)c3)c(OC)cc(OC)c12 (stereo not drawn),100,4.2µM*,.,.,15,
CNC(=O)OCCc1n(C)cc[n+]1C,-5,-4%,-4,-26,-1.4,
COc1ccc(CCNC(=O)CCn2c(SCC#N)nc3ccccc3c2=O)cc1OC,-3,-4%,-10,-19,-3.8,
CC(C)NC(=O)Cn1c(SCC(=O)NC2CCCC2)nc2ccccc21,4,.,.,.,-1.1,
Cc1ccc(C(C(=O)NC(C)(C)C)N(Cc2ccco2)C(=O)Cn2nnc(-c3cccs3)n2)cc1 (stereo not drawn),-1,-4%,5,-10,2.1,
Cc1cccc(-c2nc3c(c(SCC(N)=O)n2)CCCC3)c1,1,12%,-7,10,0.9,
CCOC(=O)NN1C(=O)c2ccccc2NC1c1ccc(OC)cc1OC (stereo not drawn),5,7%,1,.,-3.2,
CC(C)c1cc(C(N)=O)c(NC(=O)c2cccc(COc3ccc(Br)cc3)c2)s1,61,8%,-23,-12,-5.1,
CCCCc1ccc(NC(=S)N2CCN(c3ncccn3)CC2)cc1,-3,6%,-7,.,1.9,
O=C(N/C(=C\c1cccc([N+](=O)[O-])c1)C(=O)N1CCOCC1)c1ccco1,-4,.,.,.,0.6,
Clc1ccc(CSc2nnc(-c3c[nH]c4ccccc34)o2)cc1,2,4%,-4,-16,7.8,
Cc1ccccc1NC(=S)N(CCCN1CCOCC1)Cc1cccs1,7,43%,7,-5,-1.4,
O=[N+]([O-])c1ncn(Cc2c(Cl)cccc2Cl)n1,.,37µM*,13,-26,-2.4,
CC(=O)Nc1cccc(N(C)S(C)(=O)=O)c1,-1,-8%,-2,-25,-1.4,
O=S(=O)(NCc1cccnc1)c1cccc2cccnc12,0,-1%,-2,-7,1.0,
CC1OC(Oc2c(-c3cc(O)c(O)c(O)c3)oc3cc(O)cc(O)c3c2=O)C(O)C(O)C1O (stereo not drawn),.,3%,.,.,-8.9,
O=C(O)CC1(CC(=O)NCc2cccc(Cl)c2)CCCCC1,5,.,.,.,2.5,
Nc1nc(SCC(=O)NCCCO)nc2sc3c(c12)CCC3,9,-12%,7,3,0.6,Arbovirus anti repeat=0
Cc1ccccc1OCC(=O)Nc1ccc2c(c1)OCCO2,7,0%,.,.,2.3,
COc1ccccc1C(=O)ON=C1c2ccccc2-c2ccccc21,50,21%,1,-29,6.2,
O=C(Cn1nc(Cc2cccnc2)c2ccccc2c1=O)N1CCN(c2ccccn2)CC1,-4,-2%,-1,-47,.,Arbovirus anti repeat=6
C=Cn1c(P(=S)(N2CCOCC2)N2CCOCC2)cc2c1CCCC2,-5,-3%,-3,-16,4.2,
COc1ccc(CCN(C)C(=O)CN2C(=O)NC3(CCCc4ccccc43)C2=O)cc1OC (stereo not drawn),-13,.,.,.,-2.2,
COc1cc(C(C)=O)ccc1OCC(O)CN1CCN(c2ccccc2)CC1 (stereo not drawn),-3,.,.,.,-5.7,
Cc1noc(C(=O)Nc2c(C)nn(Cc3ccccc3)c2C)c1Cl,5,4%,5,0,-0.2,Arbovirus anti repeat=0
CC(C)(C)c1ccc(C(=O)NNC(=O)c2ccc(Cl)cc2)cc1,-1,1%,2,-26,-0.6,
Cc1cc(-c2ccc(S(=O)(=O)N3CCN(C)CC3)s2)on1,4,.,.,.,-2.7,
Cn1c(CNc2ccccc2)nc2ccccc21,-4,5%,-3,-40,0.9,
CCOc1ccc(NC(=O)CC2S/C(=N/N=C3CCCCCC3)NC2=O)cc1 (stereo not drawn),-4,.,.,.,-0.5,
COCCCNC(=S)NCCCNc1nc2cc3c(cc2cc1C#N)OCO3,2,4%,7,-24,-111,

# Fetched by structure from the list above, 3 records:
SMILES,Mtb betalactam,Mtb growth,Arbovirus anti,YopH PTP inh,RecA splice inh,others
CCCCc1ccc(NC(=S)N2CCN(c3ncccn3)CC2)cc1,-3,6%,-7,.,1.9,
O=C(O)CCc1nc(-c2ccccc2Cl)no1,-13,-7%,4,-40,-3.6,
COc1ccc(Nc2cc(C(=O)NCCCN3CCOCC3)c3ccccc3n2)cc1OC,13,-1%,-2,7,-0.4,

# In the list so far, 4 contain an NH in an aromatic ring.
SMILES,Mtb betalactam,Mtb growth,Arbovirus anti,YopH PTP inh,RecA splice inh,others
Nc1cc(=O)[nH]c(SCC(=O)Nc2cc([N+](=O)[O-])ccc2Cl)n1,3,2%,10,.,.,
C=CCn1c2ccccc2c2n[nH]c(=S)nc21,-3,.,.,.,-0.4,
O=c1[nH]ncc(N2CCCCC2)c1Cl,-3,7%,3,-23,-2.8,
Clc1ccc(CSc2nnc(-c3c[nH]c4ccccc34)o2)cc1,2,4%,-4,-16,7.8,

# (continued)
SMILES,Mtb betalactam,Mtb growth,Arbovirus anti,YopH PTP inh,RecA splice inh,others
Cc1nc(-c2ccccc2)sc1-c1nc(-c2ccccc2)ncc1S(=O)(=O)c1ccccc1,-9,.,-9,-36,2.0,
O=C(CCCC(=O)NCc1ccc(F)cc1)NCc1ccc(F)cc1,2,-2%,3,.,0.5,
Cc1cc(=O)n(C)c(=O)n1CC(=O)N1CCCCCC1,-6,-2%,5,-16,0.0,
COc1ccc(C(=O)CCN2CCCC(C)C2)cc1 (stereo not drawn),41,.,.,.,-0.8,
CCCCOc1ccc(NC(=O)C2OC3OC(C)(C)OC3C3OC(C)(C)OC23)cc1 (stereo not drawn),1,0%,-1,-23,-1.1,
CCCCN=C1NC(=O)C(CC(=O)NCCc2ccc(OC)cc2)S1 (stereo not drawn),3,10%,5,-10,0.1,
Cc1ccc(C(=O)CSc2nnc(-c3cccnc3)n2N)cc1,15,-3%,-9,-31,-1.4,
Cc1cc([N+](=O)[O-])nn1CC(=O)N/N=C/c1ccccc1F,7,4%,.,.,-3.0,
CCCCCC(=O)NC(=S)Nc1cccc(C(C)=O)c1,4,8%,-6,-22,0.0,
CC(C)c1ccc(NC(=S)NC2CC3C=CC2C3)cc1 (stereo not drawn),94,56%,.,.,4.9,
COC(=O)c1ccccc1S(=O)(=O)N(Cc1cc2cc3c(cc2[nH]c1=O)OCO3)C1CCCCC1,2,.,3,4,1.8,
Cc1ccc(OC(C)C(=O)Nc2ccccc2C(=O)N2CCN(C)CC2)cc1 (stereo not drawn),-1,.,.,.,1.6,
Cc1cc(Br)ccc1NC(=S)NCCc1ccccc1,3,.,.,.,5.3,
C=CCNC(=O)N1CCCC(C(=O)c2cccc(Cl)c2)C1 (stereo not drawn),1,-1%,7,.,1.4,
CCOCCCNC(=O)c1ccc2c(c1)ncn2-c1cccc(C)c1,-4,.,.,.,-0.1,
Cc1cccc(OC(=O)n2c(=S)oc3cc(Cl)ccc32)c1,-5,6%,7,-18,.,
CCOC(=O)c1c(C)c(C(=O)O)n(C)c1C,-7,-6%,3,-43,-2.3,Arbovirus anti repeat=11
CC(=O)Nc1nc(-c2cc([N+](=O)[O-])cs2)cs1,100,<0.2µM*,-11,.,-2.7,
CCCCc1nc2ccccc2c(=O)n1-c1ccccc1[N+](=O)[O-],-15,8%,9,-24,-2.3,
CCCn1c(SCC(=O)Nc2ccc(OC)cc2)nnc1-c1ccncc1,-7,1%,17,-23,-0.5,
COc1cccc(OC)c1NC(=O)C1CCCN1C(=O)Nc1cccc(Cl)c1 (stereo not drawn),6,.,.,.,2.0,
COc1ccc(CNC(=O)C2CC(c3ccc(OC)cc3)=NO2)cc1 (stereo not drawn),-9,12%,-11,-20,1.3,
Cc1ccc(C(=O)COC(=O)c2cn(-c3ccccc3)nc2-c2ccccc2)cc1[N+](=O)[O-],6,10%,-33,-16,0.2,
O=C(OCc1ccc([N+](=O)[O-])cc1)c1cnc(Cl)c(Cl)c1,73,.,.,.,-0.4,
CC(C)(C)c1ccc2c(c1)OC(C(=O)N/N=C/c1ccc([N+](=O)[O-])o1)CO2 (stereo not drawn),100,?,.,.,.,
O=C1OC(c2ccccc2)c2ccc3ccccc3c21 (stereo not drawn),2,7%,0,-1,-6.1,
Cc1[nH]c2c(C)cccc2c(=O)c1Br,-1,-7%,0,-19,-0.6,
COc1ccccc1C(=O)CSc1cccc[n+]1[O-],20,3%,3,.,-2.8,
CCN(CC)CCn1c(/N=C/c2ccc(OC)c(OC)c2)nc2ccccc21,-12,.,.,.,0.7,
COC(=O)c1ccc(C2=NOC(C)(c3sc(-c4ccc(Cl)cc4)nc3C)C2)cc1 (stereo not drawn),97,?,.,.,2.7,
CN(CC1CCCN(CCc2ccc(Cl)cc2)C1)C(=O)C(=O)c1ccco1 (stereo not drawn),-3,.,.,.,0.6,
CCC(=O)Nc1ccc(C(=O)NNC(=O)c2ccc([N+](=O)[O-])cc2)cc1,-12,10%,2,.,1.2,

# Screening data (PubChem BioAssay)
